VDR inh – vitamin D3 receptor (human) inhibition; P11473; VDR-SRC2-3 peptide fluorescence polarization, 2 h; Potency, µM, without a hit: max response, negative = inhibition, usual class: inhibitors; hit rate 0.93% among 400,000; AID 504847; active means well fitted inhibition curve with a large enough effect; inconclusive means small, poorly fitted or top-dose-only effect, or another doubt; inactive means no such curve, though single readings can be large or run the other way; further: series mostly up to about 120 µM
Target sequence (P11473 whole entry, looked up): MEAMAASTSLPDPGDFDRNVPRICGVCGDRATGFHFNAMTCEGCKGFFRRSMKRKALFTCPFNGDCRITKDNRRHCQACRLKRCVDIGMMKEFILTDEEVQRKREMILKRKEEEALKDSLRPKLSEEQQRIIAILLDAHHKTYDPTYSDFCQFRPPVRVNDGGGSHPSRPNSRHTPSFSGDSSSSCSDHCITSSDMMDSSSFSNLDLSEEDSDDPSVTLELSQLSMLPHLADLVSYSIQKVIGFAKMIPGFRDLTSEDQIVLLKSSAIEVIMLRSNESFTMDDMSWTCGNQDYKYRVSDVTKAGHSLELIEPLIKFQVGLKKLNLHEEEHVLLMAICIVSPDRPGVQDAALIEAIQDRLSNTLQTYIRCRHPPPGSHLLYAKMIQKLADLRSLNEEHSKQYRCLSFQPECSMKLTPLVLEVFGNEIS
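After 23 nl compound addition and a short centrifugation, plates sat for 2 hours at ambient temperature; polarization of fluorescence then indicated loss of VDR binding to peptide SRC2-3.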
Starred values were filed as active, the others as inactive; ? = inconclusive; & = joins results of further samples. On the % scale 0 is the no-effect control and ±100 the full control effect; potency means the concentration at half of the fitted maximal effect.

Structure	VDR inh
O=C(c1ccccc1)c1c2c(cc3sc4ccccc4[n+]13)-c1cccc3cccc-2c13	-19%
CCc1ccc(NC(=O)c2noc3c2CCCCC3)cc1	-1%
O=C(NCCN1CCCCCC1)c1ccc(N2CCCC2=O)cc1	0%
Cc1ccc(C(=O)C(C)OC(=O)c2n[nH]c(=O)c3ccccc23)cc1 (configuration not stated)	-2%
CCCCCn1cnnc1SCC(=O)c1ccc2c(c1)OCO2	-9%
NCCSc1c(-c2ccc(F)cc2)[nH]c2ccccc12	1%
COC(=O)C1=C[C@@H](C(=O)OC)C2C3=C(C(=O)[C@@]2(CC(C)C)NC(=O)c2ccccc2)[C@H](C)n2c(=O)n(C)c(=O)n2[C@@H]3C1 (some centres not stated)	10%
Cc1cccc(OCCCC(=O)Nc2nccs2)c1C	3%
CC1Cc2ccccc2N1c1nc(C2CC2)nc2c1nnn2Cc1ccccc1 (configuration not stated)	5%
O=C(COC(=O)/C=C/c1cccc(C(F)(F)F)c1)NC(=O)NC1CCCC1	-14%
COc1cc(C(CCN2CCOCC2)c2c(OC)cc(OC)c3c(C)cc(=O)oc23)cc(OC)c1OC (configuration not stated)	6%&-23%
Cc1ccc(CNC(=O)CSc2nnc3c(n2)[nH]c2ccc(F)cc23)cc1	6%
Cc1ccc(C(=O)CSc2nc(N)cc(=O)[nH]2)cc1	9%
CCc1ccc2nc(N3CCN(C(=O)c4ccccc4)CC3)sc2c1	7%
O=C1C2C3C=CC(C3)C2C(=O)N1Cc1ccc(CN2C(=O)C3C4C=CC(C4)C3C2=O)cc1 (configuration not stated)	-23%
O=C(Cn1c(=O)oc2cc(S(=O)(=O)N3CCCCCC3)ccc21)NCc1ccccc1Cl	2%
CCN(CC)S(=O)(=O)c1ccc(-c2ccc(S(=O)(=O)N(CC)CC)cc2)cc1	-11%
Cc1ccc(O)c(Nc2ncnc3ccc([N+](=O)[O-])cc23)c1	-20%
Nc1ccc(S(=O)(=O)Nc2nccs2)cc1N=Nc1ccccc1[N+](=O)[O-]	?
COc1cnc(-c2ccccn2)[nH]c1=O	-7%

The closing 7 records of the part before are carried over, then new ones follow:
Structure	VDR inh
CCc1ccc2nc(N3CCN(C(=O)c4ccccc4)CC3)sc2c1	7%
O=C1C2C3C=CC(C3)C2C(=O)N1Cc1ccc(CN2C(=O)C3C4C=CC(C4)C3C2=O)cc1 (configuration not stated)	-23%
O=C(Cn1c(=O)oc2cc(S(=O)(=O)N3CCCCCC3)ccc21)NCc1ccccc1Cl	2%
CCN(CC)S(=O)(=O)c1ccc(-c2ccc(S(=O)(=O)N(CC)CC)cc2)cc1	-11%
Cc1ccc(O)c(Nc2ncnc3ccc([N+](=O)[O-])cc23)c1	-20%
Nc1ccc(S(=O)(=O)Nc2nccs2)cc1N=Nc1ccccc1[N+](=O)[O-]	?
COc1cnc(-c2ccccn2)[nH]c1=O	-7%
CCOc1ccc2nc(N3CCCC(C(=O)Nc4c(C)cccc4C)C3)sc2c1 (configuration not stated)	10%
CCCC(=O)Nc1nnc(C2CCCO2)s1 (configuration not stated)	5%
Cn1cc2cccc([N+](=O)[O-])c2n1	9%
Cc1nc(SCC(=O)NC2CCS(=O)(=O)C2)c2c3c(sc2n1)CCC3 (configuration not stated)	-16%
CCCNC(=O)c1noc2c1CCc1cc(OC)ccc1-2	-28%
Cc1cnc(C(=O)OCC(=O)N2CCN(C(=O)c3ccco3)CC2)cn1	7%
O=C(Nc1ccncc1)c1ccccc1Cl	0%
COc1ccc(CCN2CC(C(=O)NCCN3CCNC3=O)CCC2=O)cc1 (configuration not stated)	-11%
O=C(Nc1ccc(Cl)c(Cl)c1)Nc1ccc([N+](=O)[O-])cn1	-10%
CC(=O)C1C(c2ccc([N+](=O)[O-])cc2)C2C(C)=NN=C2CC1(C)O (configuration not stated)	11%
COC(=O)C[C@H]1C=C[C@@H](C(C(=O)OC)C(=O)OC)CN1C(C)=O	-13%
O=C(NCc1ccccc1)C(c1ccccc1)N(C(=O)c1csnn1)c1ccccc1 (configuration not stated)	23%
CC(=O)Nc1ccc(S(=O)(=O)NC(C)C(=O)NCC(c2ccco2)N2CCCCC2)cc1 (configuration not stated)	-16%
O=C(Cn1nnc(-c2ccccc2)n1)OCc1ccccc1	21%
CCOc1ccc(C(=O)Nc2cccc3cccnc23)cc1	13%
COc1ccccc1-n1c(-c2cc(-c3ccco3)[nH]n2)n[nH]c1=S	?
Cc1sc2nc(CSc3nc4ccccc4c(=O)n3CCCN3CCOCC3)[nH]c(=O)c2c1C	-11%
CCC(C)S(=O)(=O)c1snnc1C (configuration not stated)	-15%
COc1ccccc1NS(=O)(=O)c1cc(NC(=O)c2ccncc2)ccc1N1CCOCC1	-28%
CCOC(=O)c1c(N)sc2c1CCCC2=O	-3%
O=C1C2C3C=CC(C4CC34)C2C(=O)N1c1nccs1 (configuration not stated)	5%
Cc1cc(N2CCc3ccccc32)n2ncnc2n1	-12%
CC(C)CNC(=O)NC(=O)COC(=O)C1CSC2(c3ccc(F)cc3)CCC(=O)N12 (configuration not stated)	24%
Cc1cccc(OCCC(=O)Nc2nnc(C)s2)c1	2%
COc1cccc(CNC(=O)CNS(=O)(=O)c2ccc(Br)s2)c1	-7%
CN[C@H]1[C@H](O)[C@@H](O[C@@H]2[C@H](O)[C@@H](O[C@H]3OC(CN)=CC[C@H]3N)[C@@H](N)C[C@H]2N)OC[C@@]1(C)O	-9%
COCCNCCCOc1ccc(C(C)(C)c2ccccc2)cc1	-3%
COc1ccc(CCNC2CC(=O)N(C)C2=O)cc1OC (configuration not stated)	20%
CSc1nccc(Nc2ccccc2)c1C#N	0%
COc1cc(C2C(C(=O)Nc3ccccc3)=C(C)Nc3nc(SCC(=O)c4ccc(C)cc4)nn32)ccc1O (configuration not stated)	24%
CCOC(=O)N1CCc2cc(OC)c(OC)c3c2c1cc1cc(OC)c(OC)cc13	5%
CCOC(=O)CNC=C(C(=O)OCC)C(=O)OCC	6%
COc1cc(/C=C(\C#N)c2nc3ccccc3s2)cc([N+](=O)[O-])c1O	-17%
O[C@@H](CNC[C@H](O)c1ccccc1)c1ccccc1	-2%
N#CC1=C(N)N(c2ccc(Br)cc2)C2=C(C(=O)CCC2)C1c1cccnc1 (configuration not stated)	?
COCCn1c(=O)c(-c2ccc(F)cc2)nc2cnc(N3CCOCC3)nc21	?
O=C(Cc1ccccc1C(=O)O)Nc1cccc2ccccc12	2%
CC(C(=O)O)C1SC(=O)NC1=O (configuration not stated)	-4%
Cc1ccc(OCCNC(=O)c2cncc(Br)c2)cc1C	9%
CC(=O)[C@H]1[C@@H]2C(=O)N(c3cccc(Cl)c3)C(=O)[C@@H]2[C@H]2c3ccccc3C=CN21	7%
O=C1c2ccccc2C(O)N1c1ccc(Cl)cc1 (configuration not stated)	7%
COc1ccc(CC(=O)N2CCN(c3cccc(Cl)c3)CC2)cc1OC	-17%
COCCOC(=O)C1=C(C)Nc2nc(C)nn2C1c1ccccc1 (configuration not stated)	-4%
CS/C(=C\[N+](=O)[O-])Nc1ccc(OC(F)(F)F)cc1	-7%
C=CC1C(N2CCOCC2)C(C)(C)S1(=O)=O (configuration not stated)	-6%
COc1ccc(NC(=O)CN(C)Cc2cccs2)cc1Cl	-8%
O=C(NCCOC(=O)c1ccncc1)c1ccccc1	11%
Cc1ccc(S(=O)(=O)N2CCc3ccccc3C2)cc1C	-2%
CCc1nc(SCC(=O)N2CCOCC2)c2c(=O)n(C)c(=O)n(C)c2n1	-12%
COc1ccc2cc(C(=O)C3CCCN(C(=O)c4cc5nc(C)cc(C)n5n4)C3)ccc2c1 (configuration not stated)	2%
COc1ccc(CCNC(=O)CS(=O)(=O)c2cn(CC(=O)N3CCOCC3)c3ccccc23)cc1OC	-5%
COC(=O)c1sc(-c2ccc(C(C)(C)C)cc2)cc1NC(=O)/C=C/C(=O)O	28µM*
CC(=O)N1CCc2cc(S(=O)(=O)NCc3ccc(C)cc3)ccc21	13%
CC1=CCC2C(=O)N(c3ccc(C(=O)N4CCCCCC4)cc3)C(=O)C2C1 (configuration not stated)	-18%
Cc1c(NS(=O)(=O)c2ccc3c(c2)OCCO3)cccc1-c1nc2cccnc2s1	5%
Cc1ccc(OCC(=O)N(Cc2ccco2)c2c(N)n(Cc3ccccc3)c(=O)[nH]c2=O)cc1C	7%
Cc1cccc(NC(=O)NCC(F)(F)F)n1	1%
O=C1c2ccccc2C(=O)N1c1nc2nccc(-c3ccccc3)n2n1	13%
CC[C@H]1C(c2cccc(C)c2)=NN(c2ccccc2)[C@@H]1CO	-18%
CCOP(=O)(c1ccccc1Cl)C1(O)CCCCC1 (configuration not stated)	-15%

Additional records follow:
Structure	VDR inh
CSCCC(NC(=O)c1ccco1)C(=O)N(C)CC(=O)Nc1c(Cl)cccc1Cl (configuration not stated)	-16%
CN(C)N1C(N)=C(C#N)C(c2ccccc2)C2=C1CCCC2=O (configuration not stated)	-2%
Cc1ccc(-c2cn3c(n2)CCCC3)cc1	-18%
O=C(O)CCN1CC2([N+](=O)[O-])C=CC(=O)C([N+](=O)[O-])(C1)C2CC(=O)c1ccccc1 (configuration not stated)	-14%
CCc1ccccc1NC(=O)c1cnc(N2CCCCC2)c2ccccc12	4%
COCCN(C(=O)c1ccco1)c1nnc(-c2ccc(OC)cc2)s1	7%
CN1CCN(c2ccc([N+](=O)[O-])cc2NC(=O)c2ccco2)CC1	-4%
CCc1ccc2oc(C(=O)NCCc3ccc(OC)c(OC)c3)cc(=O)c2c1	8%
COc1ccc(C(=O)Nc2cccc(S(=O)(=O)N3CCCC3)c2)cc1S(=O)(=O)N1CCOCC1	7%
Cc1ccn(CC(C)C(=O)O)n1 (configuration not stated)	1%
CCOC(=O)C1CCCN(C(=O)c2cc3nc(-c4ccc5c(c4)OCO5)cc(C(F)(F)F)n3n2)C1 (configuration not stated)	-4%
O=C(Nc1cccc(S(=O)(=O)NC2=NCCC2)c1)c1cc(F)c(F)c(F)c1F	0%
O=C(Nc1ccc(F)c(Cl)c1)C1Cc2ccccc2CN1S(=O)(=O)c1ccc(F)cc1 (configuration not stated)	4%
COc1ccc(NC(=O)N(C)C[C@H]2Oc3c(NC(=O)Cc4ccccc4)cccc3C(=O)N([C@H](C)CO)C[C@@H]2C)cc1	-14%
Clc1cccc(NC2=NCCC2)c1	-3%
NC(=O)NCc1ccccc1	10%
Brc1ccc2nc3c(n2c1)CCCC3	15%
CC(C)(C)c1ccc(-c2nc3n(c(=O)c2C#N)CCS3)cc1	-2%
O=C(Cc1ccccc1)Nc1ccc2oc(-c3cccnc3)nc2c1	6%
Cc1c(Cl)cccc1NC(=S)N1CCC(N(C)CC2CCCO2)CC1 (configuration not stated)	13%

4 compounds picked at random from those above:
Structure	VDR inh
Brc1ccc2nc3c(n2c1)CCCC3	15%
Clc1cccc(NC2=NCCC2)c1	-3%
CN1CCN(c2ccc([N+](=O)[O-])cc2NC(=O)c2ccco2)CC1	-4%
COc1ccc(NC(=O)N(C)C[C@H]2Oc3c(NC(=O)Cc4ccccc4)cccc3C(=O)N([C@H](C)CO)C[C@@H]2C)cc1	-14%

(listing goes on)
Structure	VDR inh
O=C(CNS(=O)(=O)c1ccccc1)N/N=C/c1ccncc1	-11%
CC1CCCCC1NC(=O)CN(C)S(=O)(=O)c1cccc2nsnc12 (configuration not stated)	-14%
Cc1cccc(C(=O)NCC(=O)N2CCOCC2)c1	17%
COc1ccc(OC)c(CCNC(=O)c2ccc3c(c2)N(Cc2ccc(F)cc2)CCS3)c1	-2%
COc1cccc(-c2noc(CCC(=O)NC3CCCCC3)n2)c1	13%
CCCCN(C(=O)C1CCCC1)C1CCS(=O)(=O)C1 (configuration not stated)	-13%
O=C(COC(=O)CCc1nc2ccccc2c(=O)[nH]1)NC(=O)NC1CCCC1	2%
CCCc1ccc(OCc2ccc(C(=O)NCc3cccnc3)o2)c(OC)c1	11%
O=C(O)/C=C/C(=O)Nc1ccc(Cl)c(C(=O)O)c1	10%
CN(c1ccc(C(=O)N2CCCCC2)cc1)S(=O)(=O)c1cccs1	-9%
COc1cc(NC(=O)c2cccs2)ccc1NC(=O)c1ccccc1Cl	2%
O=C(COc1ccc(F)cc1)OCc1cc(=O)n2nc(-c3cccs3)sc2n1	9%
CCOc1ccc(C(=O)NCC(c2ccco2)S(=O)(=O)c2ccc(C)cc2)cc1 (configuration not stated)	-2%
O=C(NC(=S)NCCc1ccccc1)c1ccccc1F	5%
CCNC(=O)N1CCC(c2nc3ccccc3s2)CC1	-9%
Cc1nn(Cc2ccccc2)c(Cl)c1C(=O)OC(C)C#N (configuration not stated)	-2%
Cc1cccc(C)c1NC1=NC(=S)N(c2ccc(C(=O)O)cc2)C12CCCCC2	-4%
CCOC(=O)CNC(=O)Cn1cnc2c(nnn2-c2ccc(F)cc2)c1=O	4%
CCOC(=O)c1sc(C)c(C(=O)NCCCN2CCOCC2)c1N	11%

Assay outcomes deposited in PubChem BioAssay by National Center for Advancing Translational Sciences (NCATS).

The list is partial; rates above refer to the full screens.
